High-throughput results: PubChem, Southern Research Institute
Mtb H37Rv: Mycobacterium tuberculosis H37Rv growth inhibition, cell based, confirmatory dose response (AID 1949); most inactive calls were filed without a number and no value below 0 was filed; one-dose inhibition, % at 10 µg/mL; IC50 in µg/mL for titrated hits; actives 1.6% (n = 100,000);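 active means confirmed in a dose series; inconclusive means about 50% or more but not retested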;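 further: bacteria grown 7 days with compound before Alamar blue readout; 0% = untreated bacteria and 100% = reference antibiotic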
Starred values were filed as active, the others as inactive; i = inactive; ? = inconclusive. The list is partial; count on the stated rates, not on these rows.

cpd | Compound | Mtb H37Rv
1 | Cc1ccc(N2CCN(C(=O)c3ccccc3)CC2)c(C)c1 | i
2 | Nc1nc2c(c(Nc3ccccc3)n1)C(=O)CC(c1ccccc1)C2 (stereo not given) | 9%
3 | CCN(CC)C(=O)c1c(NC(=O)c2ccccc2)sc(C)c1C | 3%
4 | Cc1ccc(OC(=O)CN2C(=O)c3ccccc3C2=O)c(C(C)(C)C)c1 | 2%
5 | CC1(C)CC(O)CC(C)(C)N1CC(O)COc1ccccc1F (stereo not given) | i
6 | CC1CN(c2nc(-c3cccc([N+](=O)[O-])c3)cs2)CC(C)O1 (stereo not given) | i
7 | COC(=O)C1=C(C)NC(=S)NC1c1ccc(OCC(=O)Nc2cccc(C(F)(F)F)c2)c(OC)c1 (stereo not given) | 22%
8 | CC(=O)c1ccc2c3c(cccc13)C(=O)N(c1cc(C)ccc1C)C2=O | 2%
9 | COc1ccccc1NC(=O)CSc1ncnc2scc(-c3ccccc3)c12 | i
10 | O=C(Nc1ccc2c(c1)OCO2)N1CCN(C(=O)C2CCCO2)CC1 (stereo not given) | i
11 | Cc1cccc(C)c1NC(=O)c1ccc(-c2cccc(Cl)c2)o1 | i
12 | COc1ccc(NC(=O)Cc2coc3ccc4ccccc4c23)cc1 | i
13 | CC(=O)Nc1ccc(OC(=O)N2CCCC2)cc1 | i
14 | N#Cc1c(C(F)(F)F)cc(-c2ccccc2)nc1SCC(=O)Nc1ccccc1C(F)(F)F | 4%
15 | CCOc1cc(C)c(S(=O)(=O)NCc2cccnc2)cc1C | i
16 | COc1cc(C(=S)N2CCCCCC2)ccc1OCc1ccc(C)cc1 | 1%
17 | O=C(Cc1ccccc1)Nc1scc(-c2ccccc2)c1C(=O)N1CCCC1 | i
18 | O=C(Nc1ccccc1C(=O)NCCO)c1ccco1 | i
19 | CCc1ccc2oc(-c3ccc(NC(=O)COc4ccccc4)cc3)nc2c1 | i
20 | CC1=C(C(=O)N2CCOCC2)C(c2ccc(Br)cc2)C2=C(CCCC2=O)N1 (stereo not given) | i
21 | O=C(C1=C(O)C(=O)N(c2nncs2)C1c1ccccc1F)c1cccs1 (stereo not given) | i
22 | CC(Oc1ccc(Cl)cc1Cl)C(=O)N(C)C (stereo not given) | i
23 | COc1ccccc1-c1nn2c(-c3ccccc3)nnc2s1 | i
24 | O=C(CSc1nc2sc3c(c2c(=O)n1-c1ccccc1)CCCCC3)N1CCOCC1 | 4%
25 | O=C(Cn1c(C(F)(F)F)nc2ccccc21)c1cccc([N+](=O)[O-])c1 | i
26 | COc1ccc(NC(=O)c2ccc(Cn3cc(Br)cn3)cc2)cc1OC | i
27 | COc1c(Cl)cc(C(=O)Nc2ccc(N3CCN(Cc4ccccc4)CC3)cc2)cc1Cl | i
28 | O=C(Cc1cccs1)Nc1ccccc1Oc1ccccc1 | i
29 | O=C(Oc1cccc2cccnc12)c1ccccc1F | 2.7µg/mL*
30 | Cc1cccc(NC(=O)c2cc3cc([N+](=O)[O-])ccc3oc2=O)c1 | i
31 | COc1ccc(OC)c(NC(=S)NCc2ccco2)c1 | i
32 | Cn1c(=O)c2c([nH]c(=S)n2Cc2ccc(Br)cc2)n(C)c1=O | 2%
33 | Cc1ccc(CN(C#N)c2nc(C)cc(C)n2)cc1 | i
34 | O=C(CSc1nnnn1-c1ccc(O)cc1)Nc1ccc(F)cc1 | i
35 | Cc1cc(Br)cc(C)c1NC(=O)CSc1nnc(CNC(=O)c2ccc(Cl)cc2Cl)n1C | i
36 | Cc1ccc(S(=O)(=O)Nc2ccccc2C(=O)NCc2ccccc2)cc1[N+](=O)[O-] | i
37 | CC1CCCCC1N1CCN(Cc2ccncc2)CC1 (stereo not given) | 5%
38 | COc1cc(S(=O)(=O)NCc2ccc3c(c2)OCO3)c(OC)cc1Cl | i
39 | O=C(CCN1C(=O)c2ccccc2C1=O)Nc1ccc(-c2nc3ccccc3[nH]2)cc1 | 3%
40 | CS(=O)(=O)N(CC(=O)Nc1cccc(Br)c1)Cc1ccccc1 | 2%
41 | O=c1cc[nH]c2c(C(F)(F)F)cccc12 | 6%
42 | O=C1CC(C(=O)Nc2ccc(C(=O)N3CCOCC3)cc2)C2(CCCCC2)O1 (stereo not given) | i
43 | Cc1ccc(S(=O)(=O)N2CCCC(C(=O)NCc3ccccn3)C2)cc1 (stereo not given) | i
44 | CC(NC(=O)CCC1CCCCC1)c1ccccc1 (stereo not given) | 4%
45 | CCCC(=O)Nc1ccc(S(=O)(=O)N2CCCCC2)cc1 | i
46 | CCC(C)c1ccc(NC(=O)C2CC2c2ccccc2)cc1 (stereo not given) | i
47 | CC1(C)CC(=O)C2=C(C1)N(c1ccc(F)cc1)C(=O)NC2(C(F)(F)F)C(F)(F)F | i
48 | C=CCn1c(Cc2nc3ccccc3[nH]2)n[nH]c1=S | i
49 | COc1cccc(N2C(=O)CC(Sc3ccccc3C(=O)O)C2=O)c1 (stereo not given) | i
50 | N#Cc1nc(-c2ccccc2Cl)oc1NCC1CCCO1 (stereo not given) | i

Further compounds follow.
cpd | Compound | Mtb H37Rv
51 | COc1ccc(C2(C(=O)Nc3cccc(C(F)(F)F)c3)CCOCC2)cc1OC | 1%
52 | O=C(O)CCCNC(=O)c1cccnc1 | i
53 | Cc1cccc(C(=O)Nc2ccccc2N2CCCC2)c1 | 12%
54 | COc1ccc(CN2CCN(C3CCCCCC3)CC2)cc1OC | i
55 | CNc1nc(Oc2ccc(=O)[nH]n2)nc(N2CCOCC2)n1 | i
56 | CC(C)C(=O)N1CCN(c2ccc(NC(=O)c3cc4ccccc4o3)cc2)CC1 | 20%
57 | O=S(=O)(O)c1nc2ccccc2n1CCc1ccccc1 | i
58 | O=C(c1ccc(N2CCCCCC2)c([N+](=O)[O-])c1)N1CCCCC1 | i
59 | O=C(CC(c1ccc(F)cc1)c1ccco1)N1CCCCC1 (stereo not given) | i
60 | O=c1c2ccccc2ncn1CCCOc1ccc(OCc2ccccc2)cc1 | 3%

Another view of two compounds above:
54) COc1ccc(CN2CCN(C3CCCCCC3)CC2)cc1OC
- Mtb H37Rv: i
57) O=S(=O)(O)c1nc2ccccc2n1CCc1ccccc1
- Mtb H37Rv: i

Later entries.
cpd | Compound | Mtb H37Rv
61 | CN(C)c1ccc(C(=O)OCc2ccc([N+](=O)[O-])cc2)cc1 | 1%
62 | COc1ccccc1N(CC(=O)Nc1ccccc1C(=O)NC(C)c1ccccc1)S(C)(=O)=O (stereo not given) | i
63 | COc1ccc(Cl)cc1NC(=O)CN1C(=O)c2ccccc2S1(=O)=O | i
64 | Cn1nc([N+](=O)[O-])nc1OCc1nc2ccccc2n1C | i
65 | O=C(OCc1ccc(S(=O)(=O)c2ccccc2)cc1)c1cccs1 | ?
66 | COc1ccc(C)cc1NC(=O)C(C)NS(=O)(=O)c1ccc(Cl)cc1 (stereo not given) | 2%
67 | CCOc1cc(NC(=O)C(C)(C)C)c(OCC)cc1NC(=O)c1ccccc1 | 0%
68 | COC(=O)c1ccc(NC(=O)c2cccc(NC(=O)c3ccccc3)c2)cc1 | i
69 | O=C(NCc1ccc(Cl)c(Cl)c1)c1ccccc1Br | i
70 | COC(=O)c1sc(S(=O)(=O)NCc2cccs2)c(C(=O)OC)c1C | i
71 | Cc1sc2ncn(CC(=O)NCCc3ccccc3)c(=O)c2c1C | i
72 | COc1ccc2c(c1)CC/C2=N\OC(=O)c1ccccc1OC | ?
73 | Cc1ccc(SCCC(=O)NCCSCc2ccco2)cc1 | i
74 | Cc1cc(C)nc(SCc2n[nH]c(=S)n2C)n1 | 0%
75 | Cc1ccc(NC(=O)CN(C)S(=O)(=O)c2ccccc2)cc1Cl | i
76 | Cc1cccc(-c2noc(CN(C(=O)C34CC5CC(CC(C5)C3)C4)C(C)C)n2)c1 | i
77 | O=C(CCCN1C(=O)c2cccc3cccc(c23)C1=O)N1CCN(c2ccccc2F)CC1 | i
78 | Cc1ccc(C(=O)NC(=S)Nc2ccc(-c3nc4ccccc4[nH]3)cc2)c(C)c1 | i
79 | COc1ccc(NC(=O)Cc2ccc3c(c2)CCCC3)cc1 | i
80 | O=C(NCCNS(=O)(=O)c1ccccc1)N1CCOCC1 | i
81 | O=C(O)c1ccccc1-c1ccc(-c2nc3ccccc3s2)o1 | 2%
82 | O=C(CSc1nc2ccccc2o1)N1CCN(c2ccc(Cl)cc2)CC1 | 3%
83 | CCc1cccc(OCCCN2CCCC2)c1 | i
84 | CCCCC(=O)Nc1ccc(NC(=O)c2cc(I)ccc2Cl)cc1OC | i
85 | CCOc1c(OC)cccc1C1Nc2ccccc2NC2=C1C(=O)C(C(=O)OC)C(C)C2 (stereo not given) | i
86 | CCOC(=O)C1=C(C)N=C2SCC(=O)N2C1c1cccs1 (stereo not given) | i
87 | CCCCN(CC)C(=O)C(=O)OCC | 4%
88 | Cc1ccc(CC(=O)Nc2ccc(S(=O)(=O)N3CCC(C)CC3)cc2)cc1 | i
89 | C=CCNC(=S)NNC(=O)c1[nH]c(C)c(C(=O)OCC)c1C | 1%
90 | O=C(COc1ccccc1Cl)Oc1ccc(Cl)cc1 | i

A different layout for part of the listing above.
#85 CCOc1c(OC)cccc1C1Nc2ccccc2NC2=C1C(=O)C(C(=O)OC)C(C)C2 (stereo not given)
  Mtb H37Rv = i

#86 CCOC(=O)C1=C(C)N=C2SCC(=O)N2C1c1cccs1 (stereo not given)
  Mtb H37Rv = i

#87 CCCCN(CC)C(=O)C(=O)OCC
  Mtb H37Rv = 4%

#88 Cc1ccc(CC(=O)Nc2ccc(S(=O)(=O)N3CCC(C)CC3)cc2)cc1
  Mtb H37Rv = i

The list continues.
cpd | Compound | Mtb H37Rv
91 | Cc1ccc(CNc2nc3ccccc3s2)s1 | 7%
92 | COc1ccc(CCNC(=S)Nc2cccc(NC(C)=O)c2)cc1OC | i
93 | O=C(CCCSc1nc(-c2ccco2)cc(C(F)(F)F)n1)NCc1cccnc1 | 5%
94 | S=c1[nH]nc(-c2ccc(Br)cc2)n1-c1ccccc1 | i
95 | O=C(COc1ccc(F)cc1)Nc1nnc(COc2cccc(Cl)c2Cl)s1 | i
96 | O=C(CC1C(=O)NCCN1C(=S)Nc1ccccc1)Nc1ccc(F)cc1 (stereo not given) | i
97 | CC(Oc1cccc(Cl)c1)C(=O)Nc1ccccc1C(C)C (stereo not given) | i
98 | C=CCNc1nc(-c2ccc(NC(C)=O)cc2)cs1 | i
99 | CC(C)Cc1nnc(NS(=O)(=O)c2ccccc2)s1 | 1%
100 | O=C1CC(Cc2ccc(Cl)cc2)C(=O)N1c1ccc(Oc2ccccc2)cc1 (stereo not given) | 2%
101 | CCOc1ccc(C(=O)NC(=S)Nc2cccc(-c3nc4ncccc4o3)c2C)cc1Br | i
102 | COC(=O)c1c(NC(=O)CCCOc2ccc(Cl)cc2Cl)sc(C)c1C | i
103 | CCCC1=C(C(=O)OCC)C(c2ccc(O)c(OCC)c2)NC(=O)N1 (stereo not given) | 0%
104 | CCc1sc2[nH]c(=S)n(-c3ccccc3)c(=O)c2c1C | i
105 | O=C(CN1CCN(Cc2ccc3c(c2)OCO3)CC1)c1ccc(Cl)cc1 | 1%
106 | Cc1ccc(S(=O)(=O)N(CC(=O)Nc2ccc(F)cc2F)c2cccc(C(F)(F)F)c2)cc1 | i
107 | Cc1ccc(S(=O)(=O)NCCC2(c3ccccc3)CCOC(C)(C)C2)cc1 (stereo not given) | 2%
108 | Nc1ccc(S(=O)(=O)N2CCc3ccccc32)cc1 | i
109 | COc1cc(Cl)c(S(=O)(=O)n2c([N+](=O)[O-])cnc2C)cc1Cl | i
110 | O=C(Nc1ccc(Br)c(Cl)c1)C1CC1 | 0%
111 | O=C(Nc1cccc2ccccc12)N1CCN(C(=O)C2CCCO2)CC1 (stereo not given) | i
112 | CC(C)CNS(=O)(=O)c1ccc(CCC(=O)NCc2ccco2)cc1 | i
113 | COC(=O)COc1ccc(S(=O)(=O)N2CCN(Cc3ccccc3)CC2)cc1Cl | i
114 | CC(C)C(=O)Nc1cccc(C(=O)NCCc2ccccc2)c1 | 4%
115 | O=C(CC1Sc2ccccc2NC1=O)Nc1ccc(N2CCCC2)cc1 (stereo not given) | 36%
116 | Cc1cc(F)ccc1C(=O)Nc1cccc(Cl)c1Cl | 2%
117 | CCOC(=O)c1ccccc1NC(=O)Nc1cccc(Cl)c1 | i
118 | O=C1CC(c2ccccc2)CC2=C1C(c1ccncc1)Nc1ccccc1N2 (stereo not given) | i
119 | CC(C)(C)c1ccc(-c2nc3scc(-c4cccs4)c3c(=O)o2)cc1 | 44%
120 | CCC(=O)c1ccc(OCc2ccc(F)cc2)cc1 | 10%
121 | COc1cc(C(=O)Nc2ccccc2C)ccc1OC(C)C | i
122 | O=C(CSCc1cccc(Cl)c1)N1CCN(c2ccccc2)CC1 | i
123 | CCOc1cccc(Nc2ncnc3ccccc23)c1 | 1%
124 | CCC(=O)NC(=S)Nc1cccc(NC(=O)c2ccccc2C)c1 | 3%
125 | O=S(=O)(c1ccc2c(c1)oc1ccccc12)N1CCOCC1 | i
126 | CCNS(=O)(=O)c1ccc(OCC)c(C)c1 | i
127 | C=CCn1c(SCC(=O)Nc2c(C)cccc2C)nnc1-c1cccnc1 | i
128 | COc1ccc(-c2nc3cc(NC(=O)c4ccc(-c5ccccc5[N+](=O)[O-])o4)ccc3o2)cc1 | i
129 | Cc1ccc(C(=O)c2cc(F)c(N3CCOCC3)cc2Cl)cc1C | 17%
130 | CCc1ccc(NC(=O)c2ccc(S(=O)(=O)N3CCCCC3C)cc2)cc1 (stereo not given) | 4%
131 | COc1cc(NC(=O)c2cccc([N+](=O)[O-])c2C)ccc1NC(=O)C(C)C | i
132 | COC(=O)c1cc(OC)c(OC)cc1NC(=O)Nc1cccc(C(F)(F)F)c1 | i
133 | CS(=O)(=O)N(CC(=O)Nc1cc(Cl)ccc1Cl)c1cccc2ccccc12 | i
134 | Cc1cc(I)ccc1NC(=O)CSc1nc2ccccc2[nH]1 | 27%
135 | NC(=O)c1ccccc1NC(=O)C1CC1 | i

Some of these compounds in order of length of the SMILES, rising:
cpd | Compound | Mtb H37Rv
134 | Cc1cc(I)ccc1NC(=O)CSc1nc2ccccc2[nH]1 | 27%
130 | CCc1ccc(NC(=O)c2ccc(S(=O)(=O)N3CCCCC3C)cc2)cc1 (stereo not given) | 4%
132 | COC(=O)c1cc(OC)c(OC)cc1NC(=O)Nc1cccc(C(F)(F)F)c1 | i
